T cruzi repl: T. cruzi replication inhibition; T. cruzi beta-gal in NIH3T3, luminescence, 90 h; inhibition, % (no concentration beside the values); hit rate 1.4% among 300,000; AID 1885;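 active = mean inhibition across valid replicates above about 55%, limit read from the data; inconclusive = mean below that limit but half or more replicates reach it; inactive = mean below it, under half of replicates reach it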;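 note: signal also drops with host cell toxicity which is not excluded here; 0% = plate median of DMSO wells and 100% = zero luminescence signal; higher percent means less beta-gal luminescence so fewer parasites; stock transfer was 50 nL into about 50 µL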
RanGTP-Impb inh: inhibitors of RanGTP-importin-beta interaction, primary screen, biochemical, FRET, CFP-Ran, YFP-importin-beta, homogeneous; hit rate 1.1% among 300,000; AID 2216; cell-free CFP-Ran/YFP-importin-beta FRET ratio; inhibition, % (no concentration beside the values);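 active = most replicates above 15%; inconclusive = exactly half above 15%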;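 note: 0% = DMSO wells and 100% = Ran loaded with GDP instead of GTP; wells of about 40 µL received 100 nL stock; the first replicate is given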
Calb FLC: C. albicans growth modulation with fluconazole; growth inhibition, % (concentration not given with the values); C. albicans CaCi-2 (fluconazole-resistant clinical isolate) + fluconazole, Alamar Blue growth, 48 h; hit rate 0.57% among 300,000; AID 1979;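 active = most replicates above 75%; inconclusive = exactly half above 75%; inactive = most below 75%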;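 note: all wells also contain fluconazole at 8 µg/ml as a sub-toxic cotreatment; 0% = median of DMSO wells and 100% = median of geldanamycin control wells; wells of about 8 µL received 7.5 nL stock; the first replicate is given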
The depositor's hits bear a star; ? = inconclusive; · = not tested or not shown. Not all compounds are listed, so the mix of outcomes need not match the whole.

Values run as follows: T cruzi repl | RanGTP-Impb inh | Calb FLC
Cc1cc(S(=O)(=O)Nc2nc(CN3CCOCC3)nc3sc4c(c23)CCCC4)ccc1F
    · | · | 7
O=C1c2ccccc2C(=O)N1Cc1nc2ccccc2c(=O)n1CCCn1ccnc1
    · | · | -6
O=C(CN1CCN(S(=O)(=O)c2cc(Cl)ccc2Cl)CC1)Nc1ccc2c(c1)OCCO2
    · | · | 13
CC(C)NC(=O)N1CCOCCOCCN(C(=O)NC(C)C)CCOCCOCC1
    · | · | -11
O=C(CSc1nnc(-c2ccc(Cl)s2)o1)N1CCCc2ccccc21
    · | · | 28
O=C(CC1SC(=Nc2ccccc2)N(CCCO)C1=O)Nc1ccc(Cl)cc1 (configuration not stated)
    · | · | 27
Cc1ccc2c(COn3nnc4ccc(S(=O)(=O)N(C)C)cc43)cc(=O)oc2c1C
    · | · | 4
O=C(CN1CCN(c2ccccc2F)CC1)c1ccc2c(c1)OCO2
    · | · | -25
O=C(O)c1cccc(C(=O)O)n1
    -19 | 7.4 | ·
O=P(O)(O)CP(=O)(O)O
    -27 | ? | ·
C=CCn1c(N)c(C(=O)OC(C)CC)c2nc3ccccc3nc21 (configuration not stated)
    38 | 35* | ·
O=C(O[C@@H]1Cc2c(O)cc(O)cc2O[C@@H]1c1cc(O)c(O)c(O)c1)c1cc(O)c(O)c(O)c1
    0 | 4.1 | ·
COC(=O)c1ccc(-c2ccc(C(=O)N3CCCN(C)CC3)cc2)cc1
    9 | 1.4 | ·
O=C(CN1CCCN(S(=O)(=O)c2ccc(Br)cc2)CC1)Nc1ccc2cn[nH]c2c1
    · | 5.9 | 9
COCCNC(=O)CN(CC1CCCO1)C(=O)CCC(=O)Nc1ccccn1 (configuration not stated)
    · | -2.5 | -7
COC(=O)C1=CN(C(C)C)C=C(C(=O)OC)C1c1cc(Br)c(OC)c(OC)c1
    · | 59* | 33
COc1ccc(S(=O)(=O)N2CCC(C(=O)c3ccc4c(c3)OCCO4)CC2)cc1
    · | 3.1 | 2
CC(C)c1ccc(N2CCN(C(=O)c3ccccc3NC(=O)/C=C(\C(=O)O)c3ccccc3)CC2)cc1
    · | -3.2 | -5
O=C(Nc1ccc(-n2nncc2-c2ccco2)cc1)c1cc2ccccc2oc1=O
    · | -1.4 | -24
COc1ccc(-c2ccc(-c3noc(-c4ccccc4F)n3)c(OC)n2)cc1
    -12 | 3.5 | 15

Among those listed so far, these contain a COOH group.
Values run as follows: T cruzi repl | RanGTP-Impb inh | Calb FLC
O=C(O)c1cccc(C(=O)O)n1
    -19 | 7.4 | ·
CC(C)c1ccc(N2CCN(C(=O)c3ccccc3NC(=O)/C=C(\C(=O)O)c3ccccc3)CC2)cc1
    · | -3.2 | -5

Carrying on:
Values run as follows: T cruzi repl | RanGTP-Impb inh | Calb FLC
CC1CN(Cc2nc3c(c(=O)n(C)c(=O)n3C)n2CCN2CCOCC2)CC(C)O1 (configuration not stated)
    -2 | ? | 2
COc1ccc(C(O)C(CN2CCOCC2)c2ccccc2)cc1F (configuration not stated)
    5 | 3.5 | -3
COC(=O)c1cc(NC(=O)CN(c2ccc(OC)cc2)S(=O)(=O)c2ccc(F)cc2)ccc1Cl
    24 | -0.7 | -3
Cc1ccc([N+](=O)[O-])cc1-c1ccc2cccc(C)c2n1
    -20 | 0.2 | 15
COCCn1nnnc1C(c1ccccc1Cl)N1CCN(c2ccccc2OC)CC1 (configuration not stated)
    -14 | -4.8 | -17
Cc1ccc(-c2nc(N/N=C/c3ccccc3[N+](=O)[O-])c3ccccc3n2)cc1
    0 | -0.7 | ?
COc1ccc(-c2nnn(CC(=O)N(CC(=O)NC3CCCC3)Cc3cccs3)n2)cc1OC
    0 | -3.1 | 0
Cc1cc(C(=O)CSc2nnc(-c3ccco3)o2)c(C)n1CC1COc2ccccc2O1 (configuration not stated)
    26 | 4.9 | 15
Cc1nn(C(C)(C)C)c(OC(=O)C2CCCC2)c1S(=O)(=O)c1ccccc1
    -2 | -1.2 | 3
CCCN1CCc2c(sc3nc(SCC)n(-c4ccccc4)c(=O)c23)C1
    32 | 1.9 | -1
Cc1c(Br)cccc1NC(=O)c1sccc1-n1cccc1
    18 | 0.7 | 6
COc1cccc(-c2nnc(N(C)C(=O)c3ccno3)s2)c1
    2 | 1.8 | -6
CC(C)C(=O)NCCCc1ccccc1
    13 | -1.8 | -4
COc1cccc(-c2cc(C(=O)Nc3ccc4c(c3)OCCO4)c3ccccc3n2)c1
    21 | -2.2 | -1
CC(C)CC(=O)/C(=C\c1ccc(Cl)cc1Cl)n1cncn1
    45 | 2.3 | 52
Cc1ccc(-c2csc(N(CCCN3CCOCC3)C(=O)c3ccco3)n2)cc1
    40 | 8.5 | 13
CCn1c(-c2nonc2NC(=O)c2ccccc2)nc2ccccc21
    31 | -3.2 | -41
CCOC(=O)N1CCC(Nc2c(N3CCN(c4cccc(C(F)(F)F)c4)CC3)c(=O)c2=O)CC1
    9 | 3.8 | 10
Cc1ccc(C)n1-c1sccc1C(=O)O
    -3 | -2.2 | 1
O=C1CC(=O)N(CCNc2ncc(C(F)(F)F)cc2Cl)C(=O)N1
    -6 | 3.5 | -3

5 compounds from above, sorted by molar mass, ascending.
Values run as follows: T cruzi repl | RanGTP-Impb inh | Calb FLC
CC(C)C(=O)NCCCc1ccccc1
    13 | -1.8 | -4
O=C1CC(=O)N(CCNc2ncc(C(F)(F)F)cc2Cl)C(=O)N1
    -6 | 3.5 | -3
Cc1c(Br)cccc1NC(=O)c1sccc1-n1cccc1
    18 | 0.7 | 6
CCCN1CCc2c(sc3nc(SCC)n(-c4ccccc4)c(=O)c23)C1
    32 | 1.9 | -1
COc1cccc(-c2cc(C(=O)Nc3ccc4c(c3)OCCO4)c3ccccc3n2)c1
    21 | -2.2 | -1

Continuation:
Values run as follows: T cruzi repl | RanGTP-Impb inh | Calb FLC
Nc1nc2ccccc2n1C(=O)c1ccco1
    -1 | 1.5 | 10
N#CCN1CCN(CC(=O)Nc2ccc(OCc3ccccc3)cc2)CC1
    4 | 2.8 | 1
CCN1CCN(c2ncc(C(=O)Nc3cc(Cl)c(OC)cc3OC)c3ccccc23)CC1
    32 | -0.1 | -6
CC(=O)Nc1ccc(S(=O)(=O)N(C)CC(=O)NC2=NCCS2)cc1
    6 | 1.6 | -9
CNC(=O)Nc1ccccc1C(=O)NCc1ccccc1
    -1 | 0.1 | -10
Cc1ccc2c(CC(=O)Nc3nc(C)cs3)coc2c1
    -5 | 2.9 | -7
COc1cc2[nH]c(=O)n(CCC(=O)NC3CCN(Cc4ccccc4)CC3)c(=O)c2cc1OC
    -7 | -0.1 | -3
Cc1ccc(S(=O)(=O)NCC(=O)N(CCc2ccccc2)CC(=O)NCc2ccco2)cc1
    11 | 0.9 | 32
Cc1ccc(NCCC(=O)c2ccc(Cl)cc2)cc1
    9 | 1.6 | -2
Cc1cc(C)n(-c2nc(N(c3ccccc3)c3ccccc3)nc(-n3nc(C)cc3C)n2)n1
    17 | ? | 18
CCN(CC)c1nc(C#N)nc(N(CC)CC)n1
    7 | -2.9 | -4
CC1CCN(C(c2cccs2)c2nnnn2Cc2ccccc2)CC1 (configuration not stated)
    -10 | -4.8 | -3
CC(=O)OCc1c(F)c(F)c(-n2nc(C)cc2C)c(F)c1F
    -13 | 2.2 | -2
COc1ccc(Cl)cc1NC(=O)CN1C(=O)CCS(=O)(=O)c2ccccc21
    0 | -0.2 | -3
OCCNc1nc(SCc2ccccc2)nc2sc3c(c12)CCC3
    19 | -3.4 | 5
C#CCOCCOCCOCCNc1nc(N2CCN(C(=O)[C@H](CCC(=O)O)n3cc(C(N)Cc4ccc(O)cc4)nn3)CC2)nc(N2CCN(C(=O)[C@H](Cc3ccc(O)cc3)n3cc(C(N)[C@H](C)CC)nn3)CC2)n1 (some centres not stated)
    -13 | ? | -1
O=c1[nH]c2cc3c(cc2cc1CN(CCc1ccccc1)Cc1nnnn1C1CCCC1)OCCO3
    -8 | -36 | 1
CC(C)C(NC(=O)OCc1ccccc1)C(=O)NCC(=O)OC(C)(C)C (configuration not stated)
    6 | 2.1 | -7
O=c1cc(CSc2nc3ccccc3c(=O)[nH]2)c2ccc(O)cc2o1
    -50 | 6.5 | 48
COc1ccc(OC)c(C(=O)CSc2nc3c(c(=O)n(C)c(=O)n3C)n2C(C)C)c1
    2 | 1.7 | 13
O=S(=O)(c1ccc(F)cc1)c1nc(-c2ccc(F)cc2)oc1NCCN1CCOCC1
    4 | -1.6 | -8
Cc1ccc(NC(=O)CN2CCCCCC2)c(Br)c1
    24 | -4.7 | -5
O=C(C1CCC(CNc2nc(=S)[nH]c3ccccc23)CC1)N1CCN(c2ccccn2)CC1 (configuration not stated)
    -26 | -5.5 | 0
C=CCn1c(=N)n(CC(=O)O)c2ccccc21
    0 | -1.3 | 11
CC(=O)C1=C(O)C(=O)N(Cc2cccnc2)C1c1ccc(C)cc1 (configuration not stated)
    5 | -1.5 | 4
COc1cc(N2CCCC2)c(OC)cc1/C=C(/C#N)c1cccc(F)c1
    45 | 1.1 | ?
COc1cc(-n2nnnc2SCC(=O)N2CCN(c3ccc(F)cc3)CC2)c(OC)cc1Cl
    25 | 4.8 | -6
Cc1nn(Cc2ccccc2)c(C)c1NC(=O)CSc1nc(-c2ccccc2)nc2c1cnn2-c1ccccc1
    6 | 6.4 | 6
O=C(COC(=O)c1c2c(nc3ccccc13)/C(=C/c1ccco1)CC2)NC1CCCC1
    5 | -131 | ?
Cc1[nH]c(=O)[nH]c(=O)c1S(=O)(=O)N1CCCC(C(=O)N2CCN(c3ccccc3Cl)CC2)C1 (configuration not stated)
    -9 | 0.1 | -1
COc1ccccc1-n1cnnc1SC1CCOC1=O (configuration not stated)
    -18 | 0.2 | -5
N#Cc1ccccc1Cn1c(=O)n(C2CCCC2)c(=O)c2ccccc21
    6 | 5.2 | 51
CC(=O)C1=C(C)Nc2ncnn2C1c1ccc(Cl)cc1 (configuration not stated)
    10 | 9.8 | 6
COc1ccc(NC(=O)Cn2nc(C(F)(F)F)c3c2CCCC3)cc1OC
    6 | ? | 5
O=C1C(C=NCc2cccnc2)=C(O)c2ccccc21
    -11 | 8.2 | -14
O=C(CN1C(=O)c2cccc3cccc1c23)NCc1ccc2c(c1)OCO2
    14 | 6.0 | -32
NN=C1c2cc([N+](=O)[O-])ccc2-c2ccc([N+](=O)[O-])cc21
    -13 | 0.0 | 26
O=C(Nc1cccc(F)c1)c1ccc2ncsc2c1
    -9 | 0.3 | 111*
CCOc1ccccc1N(CC(=O)NC(C)(C)C)C(=O)Cn1nnc(-c2ccc(C)o2)n1
    -4 | 1.5 | 7
COc1ccc(NC(=O)N2CCN(c3nc(-c4cccc(OC)c4)cs3)CC2)cc1
    -10 | 0.5 | 1
O=C(N/N=C/C1CCCCC1)c1ccccn1
    4 | 1.3 | 24
COc1ccc(C(=O)Nc2ccccc2NC(=O)c2ccco2)cc1OC
    3 | -0.2 | 11
O=C(CN1CCc2ccccc2C1)Nc1ccccc1N1CCCCCC1
    35 | -4.6 | -14
COc1ccc(OC)c(S(=O)(=O)Nc2ccc(C(C)=O)cc2)c1
    2 | 1.8 | -21

Looked up one by one from the list above, 4 records:
Values run as follows: T cruzi repl | RanGTP-Impb inh | Calb FLC
COc1ccc(C(=O)Nc2ccccc2NC(=O)c2ccco2)cc1OC
    3 | -0.2 | 11
O=C(N/N=C/C1CCCCC1)c1ccccn1
    4 | 1.3 | 24
COc1ccc(OC)c(S(=O)(=O)Nc2ccc(C(C)=O)cc2)c1
    2 | 1.8 | -21
O=C(CN1CCc2ccccc2C1)Nc1ccccc1N1CCCCCC1
    35 | -4.6 | -14
